AID504770: growth inhibitors of E. coli YBA685 in a screen for V. cholerae RctB (chromosome II replication) inhibitors; E. coli YBA685 rctB-dependent plasmid, OD600 growth, 3 h; hits give low values; z-score (no concentration beside the values); 130,000 tested, 0.27% active; AID 504770;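 active = z-score under -2 on both plates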;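 also: wells of about 30 µL received 100 nL stock; score is relative to mean and SD of the test wells; the first replicate is given; strong numbers were not always called active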
Ba CapD inh: blocks the Bacillus anthracis CapD enzyme | purified CapD enzyme, fluorescence intensity read-out; hits give low values; some hits fall short of the stated cut | 140,000 tested, 0.23% active | z-score (test concentration not listed) | AID 492967;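 active = z-score under -4 in either of two replicates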;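 also: stock transfer was 100 nL into about 40 µL; score is relative to mean and spread of the plate; one replicate is shown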
The depositor's hits bear a star; . = no result given. The list is partial, so the mix of outcomes need not match the whole.

Molecule	Ba CapD inh	AID504770
O/N=C1\COc2ccccc2O1	-0.365	-0.3
O=C(OCc1ccccc1)C(O)C(O)C(=O)OCc1ccccc1 (centres undefined)	-0.125	.
O=C(O)c1cccc(S(=O)(=O)NCc2ccc3c(c2)OCO3)c1	.	0.2
C1CN(c2nc(N3CCOCC3)nc(N3CCOCC3)n2)CCN1	.	-0.2
Cn1c(=O)c2c(nc(SCC(=O)N3CCOCC3)n2C)n(C)c1=O	0.685	.
N#CCn1nnc2ccccc21	0.58	-0.5
CCN(CC)c1ncccc1C(=O)N1CCCC1	.	-0.65
CCN(CC)c1ccc2c(COC(C)=O)cc(=O)oc2c1	.	-1.95
CN(CCC#N)C(=O)C1CCC(CNS(=O)(=O)c2ccccc2)CC1 (centres undefined)	0.44	-0.6
CCN1CCN(C(=O)C2c3ccccc3C(=O)N(CC(C)C)C2c2cccs2)CC1 (centres undefined)	-0.305	-0.1
COC(=O)C1=CN(C2CCCC2)C=C(C(=O)OC)C1c1ccc(Cl)cc1	8.96	-0.85
O=C1CC(C(=O)c2cccs2)CO1 (centres undefined)	0.09	.
OCCN1CN=C(Nc2nc3ccccc3o2)NC1	0.575	0.25
Cc1cc2ccccc2n1CCCN	.	-1.05
COc1ccc(CNC(=O)OCCN2CCN(Cc3cc(OC)c4c(c3)OCO4)CC2)c(OC)c1	-0.81	.
Cc1nn(-c2ccccc2)c2sc(C(=O)NC3CCSC3=O)cc12 (centres undefined)	0.105	1.95
Cc1ccc2nc(-c3ccc(NC(=O)CC4SC(=NCc5ccco5)NC4=O)cc3)sc2c1 (centres undefined)	.	-0.05
N#Cc1c(SCC(=O)c2ccc(F)cc2)sc(C(=O)c2ccccc2)c1N	-0.69	.
O=C(c1ccco1)N1CCN(C(=O)c2cc3cc(Br)cc(Br)c3oc2=O)CC1	.	-0.85
CCCCCc1ccc(-c2nc(CCCC)no2)cc1	.	-1

Additional compounds:
Molecule	Ba CapD inh	AID504770
CCC(=O)Nc1ccc2c(c1)nc1n2CCN(C2CCCCC2)C1	37	-0.4
COCc1cc(C)nc2sc3c(c12)NC(c1ccccc1)NC3=O (centres undefined)	0.46	0.45
COc1ccc(CCn2c(-c3cc(C)ccc3C)csc2=Nc2cccc(C(F)(F)F)c2)cc1OC	-0.225	.
COC(=O)C1=C(C(=O)OC)SC(=C2C(=S)C(C)(C)N(C(=O)c3ccccc3Cl)c3ccc(C)cc32)S1	0.295	.
O=C(Nc1ccccc1)Oc1ccccc1-c1ccc2cccnc2n1	-0.495	.
CC1CN(C(=O)NC23CC4CC(CC(C4)C2)C3)CC(C)O1 (centres undefined)	0.025	-0.35
O=C(NCc1ccccc1)C1Cc2ccccc2CN1C(=O)c1ccco1 (centres undefined)	.	0.5
COc1ccc(NC(=O)CSc2ccccc2)cc1	.	-0.3
CCC(CO)NC(=O)c1cc2cc(Br)cc(Br)c2o1 (centres undefined)	-0.24	2.1
O=C(Cn1nc(C(=O)O)c2ccccc2c1=O)NC1CCCc2ccccc21 (centres undefined)	.	-0.3
CCN=C(NCC)SC1CC(=O)N(c2ccccc2)C1=O (centres undefined)	0.03	-0.7
CC(C)(C)n1ncc2c(=O)n(Cc3ccccc3)cnc21	.	-0.5
COc1ccccc1CNC(=O)/C=C/c1cccc(Br)c1	-1.02	1.3
COc1ccc(C2SCC(=O)N2c2ccc(Br)cc2)cc1 (centres undefined)	-0.76	0
CSC1=NC(=Nc2cccc(C(F)(F)F)c2)C2(CCCCC2)N1c1ccc(C)cc1	6.09	.
COc1ccc(S(=O)(=O)NCc2ccccc2OC(F)(F)F)cc1OC	0.06	.
COc1cc(NC(=O)CNC(C)C)cc(OC)c1	.	-0.2
Cc1ccc(S(=O)(=O)CCSc2ncccn2)cc1	0.395	-0.7
Cc1ccc(Cl)cc1NC(=O)CC(C(=O)O)N1CCN(C)CC1 (centres undefined)	.	1.15
CC1CN(C(=O)C(C)N2CCc3ccccc3C2)CC(C)O1 (centres undefined)	.	1.45

Compound profiles, as listed above. Order of values: Ba CapD inh | AID504770
Profile of COc1ccc(NC(=O)CSc2ccccc2)cc1 : . | -0.3
Profile of CC1CN(C(=O)NC23CC4CC(CC(C4)C2)C3)CC(C)O1 (centres undefined) : 0.025 | -0.35
Profile of COc1ccccc1CNC(=O)/C=C/c1cccc(Br)c1 : -1.02 | 1.3

Quoted at random: 2 records from the list, in no set order.
Molecule	Ba CapD inh	AID504770
COc1ccc(NC(=O)CSc2ccccc2)cc1	.	-0.3
O=C(NCc1ccccc1)C1Cc2ccccc2CN1C(=O)c1ccco1 (centres undefined)	.	0.5

Next section
Molecule	Ba CapD inh	AID504770
COc1cc(SC)ccc1C(=O)Oc1ccccc1C	.	0.2
CC1CCCN(CN2C(=O)C3(OCCO3)c3ccccc32)C1 (centres undefined)	0.12	.
CCC(C(N)=O)(c1ccccc1)c1ccc([N+](=O)[O-])cc1 (centres undefined)	-0.675	.
CSc1nc2n(n1)C(C)C1=C(CCCC1=O)N2 (centres undefined)	12	-1.1
CCc1ccc(OCCSc2nc3ccccc3n2CC(=O)O)cc1	0.165	.
N[C@@H](CO)CSCc1ccccc1	-0.18	-1.45
CC(C)c1ccc(-n2c(=O)[nH]c3ccccc3c2=O)cc1	.	-0.1
O=C(Nc1cccc(C(F)(F)F)c1)N1CCN(Cc2ccccc2)CC1	0.27	-0.6
O=C(Nc1nnc(Cc2ccccc2)s1)c1ccncc1	.	2.55
Cc1ccc2nc(-c3ccc(NC4=CC(=O)CCC4)cc3)sc2c1	81.7	0.5
O=C(Nc1cccc(Oc2ccccc2)c1)C1CCC1	.	-0.3
CN(C)CCOC(=O)CN1C(=O)S/C(=C/c2ccc(Br)cc2)C1=O	-1.58	.
CCC1CCCCN1C(=O)c1sc2nc(C)nc(N3CCOCC3)c2c1C (centres undefined)	0.305	.
CC(CC(=O)N1CCc2ccccc2C1)CC1=NS(=O)(=O)c2ccccc2N1 (centres undefined)	-0.3	-0.4
Cc1onc(-c2c(Cl)cccc2Cl)c1C(=O)ON1C(=O)CCC1=O	-0.485	1.3
NC(=O)c1cc2ccccc2oc1=NCc1ccccc1	-0.735	-1.05
CSCCSc1nnc(C)n1C1CCCCC1	.	-1.8
COc1ccccc1CNc1nc2c(-c3cccc(C)c3)nnn2c2ccccc12	0.11	-0.1
CCOC(=O)Cn1ccc(O)c(Cc2ccc(Cl)cc2Cl)c1=O	-0.77	.
c1ccc2c(c1)OC1(CCCCC1)O2	.	0.6

(more compounds)
Molecule	Ba CapD inh	AID504770
Cc1ccc(CNC(=O)C2CCN(S(=O)(=O)c3ccc4nc(-c5ccccc5)[nH]c4c3)CC2)cc1	0.295	0.55
O=C(O)CC1(CC(=O)NCc2ccccc2F)CCCCC1	0.315	-1.3
CCN(C(=O)CSc1ncn[nH]1)c1cccc2ccccc12	-0.78	1.6
N#CC1=C(SCc2ccccc2)NC(=O)C(C#N)C12CCCC2 (centres undefined)	-0.1	0.7
COc1ccc2cc(C#N)c(N3CCCN(C(=O)/C=C/C(=O)O)CC3)nc2c1	.	0.1
Cc1ccc(O)c(C2=Nc3ccccc3N=C(c3ccco3)C2)c1	-0.535	0.45
O=C1CCCC(O)=C1C=NCc1cccnc1	.	-0.65
CC1CC(C)CN(C(=O)/C=C/c2ccc(Cl)cc2)C1 (centres undefined)	0.165	0.85
Cc1c(C(=O)Sc2ccccc2)sc2nc(C(F)(F)F)nn12	9.2	1.4
O=C(CC(c1ccccc1)c1ccccc1)Nc1ccc(Cl)cc1	-0.44	2.3
O=C(C1CSC2(c3ccc(F)cc3)CCC(=O)N12)N1CCCCCC1 (centres undefined)	.	0.05
O=c1[nH]n(-c2ccc(S(=O)(=O)N3CCCC3)cc2)c(=O)c2ccccc12	-0.765	-0.75
Cc1c(N=C/C=C2\N(C)c3ccccc3C2(C)C)c(=O)n(-c2ccccc2)n1C	.	-0.3
CCCCn1c(=O)[nH]c(=O)c2c1nc(-c1cccs1)c(=O)n2C	.	-0.1
O=C(Nc1cc(C(F)(F)F)ccc1N1CCCCC1)c1ccncc1	-0.15	0.2
CCC(=O)C1=C(c2ccccc2)N(C(=O)CC)n2cnnc2S1	.	-1.5
CCC(C(=O)Nc1nnc(C2CC2)s1)c1ccccc1 (centres undefined)	0.755	1.2
C/C=C/CSC1=C(C#N)C(c2cccs2)C(C(C)=O)=C(C)N1 (centres undefined)	-0.665	.
CC(C)(C)C(=O)CSc1nc2ccccc2o1	0.75	-0.8
CCOc1cc(C2C3=C(CC(C)(C)CC3=O)Nc3ccccc3N2C(C)=O)ccc1OC(C)=O (centres undefined)	0.195	.

Remaining list, next part:
Molecule	Ba CapD inh	AID504770
CC(=O)c1sc2ccc(Cl)cc2c1C	-0.445	.
COc1ccc(C2CC(c3c(-c4ccccc4)c4cc(Cl)ccc4[nH]c3=O)=NN2C(C)=O)cc1 (centres undefined)	0.325	.
O=C1CC(c2nc3ccccc3n2C/C=C/c2ccccc2)CN1c1ccc(Cl)cc1 (centres undefined)	-0.58	-1.15
NC(=O)C1CCN(C(=O)c2cccc(CN3C(=O)c4ccccc4C3=O)c2)CC1	.	-0.05
CCOC(=O)N1CCN(C(=O)c2ccc(CS(=O)(=O)c3ccc(OC)cc3)o2)CC1	-0.27	0.95
Cc1c(C(=O)N2CCN(Cc3ccccc3)CC2)sc2ncnc(N3CCN(c4ccccn4)CC3)c12	-0.86	.
CC(Oc1ccccc1)C(=O)N1c2ccccc2CC1C (centres undefined)	-0.315	0.25
CCCN1CC=C2C(C#N)=C(N)C(C#N)(C#N)C(c3ccc(OC)cc3)C2C1 (centres undefined)	0.05	.
CCc1ccccc1NC(=O)NC1CCCC1	-1.15	-0.35
CN(C)CCCNc1cn[nH]c(=O)c1Cl	.	-0.35
COc1ccc(CNC(=O)c2ccc(NC(C)=O)cc2)c(OC)c1	0.45	.
Cn1c(SCC(=O)c2ccccc2)nnc1C1COc2ccccc2O1 (centres undefined)	0.135	1.2
N#Cc1sc2sc(C#N)c(-c3ccc(Cl)cc3)c2c1N	-0.29	.
Brc1ccc(-c2csc(-c3cnccn3)n2)cc1	6.47	-0.45
FC(F)(F)c1cccc(-c2cn3cc(I)ccc3n2)c1	0.575	.
O=C(CCN1CCOCC1)Nc1cc(C(F)(F)F)ccc1Cl	-0.475	-0.6
O=S(=O)(NCCc1cccc(Cl)c1)c1cccc2nonc12	-0.185	.
Cc1noc(C)c1CSc1ncnc2sc3c(c12)CCCC3	-0.4	-0.7
Nc1c(C(=O)O)sc2nc(C3CC3)cc(-c3ccc(Cl)cc3)c12	1.13	-0.8
CC1(C)CC(=O)C2=C(C1)OC1=C(C(=O)CC(C)(C)C1)C2c1cccs1	0.35	.

Sorted by formula weight (highest first): some entries from above
Molecule	Ba CapD inh	AID504770
CC1(C)CC(=O)C2=C(C1)OC1=C(C(=O)CC(C)(C)C1)C2c1cccs1	0.35	.
O=C(CCN1CCOCC1)Nc1cc(C(F)(F)F)ccc1Cl	-0.475	-0.6
Cc1noc(C)c1CSc1ncnc2sc3c(c12)CCCC3	-0.4	-0.7

Next compounds:
Molecule	Ba CapD inh	AID504770
COc1cccc(N2CCN(C(=O)C3C4C=CC5(CN(Cc6ccccc6Cl)C(=O)C35)O4)CC2)c1 (centres undefined)	0.28	-0.1
CCCN1CCC(NC(=O)Nc2cccc3ccccc23)CC1	3.49	2.05
O=C(COc1cccc2ccccc12)N1CCc2ccccc2C1	0.505	-0.7
CCCN(CC1CC1)S(=O)(=O)c1ccccc1Br	-0.175	.
CC(NC(=O)c1ccc(F)cc1)C(c1ccccc1)N1CCN(C)CC1 (centres undefined)	0.455	0.3
CCn1c(SCCN2CCCC2)nnc1C1CCCN(C(=O)c2ccc3c(c2)OCO3)C1 (centres undefined)	.	-0.6
CCN1CCN(c2ncnc3sc(C(=O)Nc4cccc(OC)c4)c(C)c23)CC1	-1.38	.
O=C(O)c1ccc(CN2C(=O)c3ccc(C(=O)O)cc3C2=O)cc1	11.8	-2.2
Cc1ccc(C(=O)OCC(=O)N2CCc3ccccc32)c(C)c1	0.155	-0.65
O=C(NCc1ccc2c(c1)OCO2)c1cccc2c1OCCCO2	0.625	-0.3
C=CCOc1ccc(C2C(C#N)=C(N)OC(C)=C2C(=O)OCC)cc1 (centres undefined)	21.3	.
COC(=O)c1sc2ncccc2c1OCc1cccc(C(F)(F)F)c1	12.4	.
Cc1ccc(CC(C#N)Sc2nc3ccccc3o2)cc1 (centres undefined)	.	1.35
CN1CCC(N(C)C(=O)c2cc3cc(Br)cc(Br)c3o2)CC1	.	-0.95
CN(c1ncnc2sc(-c3ccccc3)cc12)C1CCS(=O)(=O)C1 (centres undefined)	.	0.2
CC(=O)N1N=C(c2cccnc2)OC1(C)C	2.6	.
O=C(NCc1nnc(SCc2ccc(Br)cc2)n1-c1ccc(F)cc1)c1ccco1	.	-0.2
CCOc1ccc(-c2cc(C(F)(F)F)c(C#N)c(SCC)n2)cc1	-0.73	-0.3

Bioassay records deposited in PubChem BioAssay by ICCB-Longwood Screening Facility, Harvard Medical School.
